ID4 binder = binders of human ID4 protein, primary screen, biochemical, small molecule microarray, single point | DNA-binding protein inhibitor ID-4 (Homo sapiens), P47928 | Flag-ID4 binding, fluorescence F/B | calls only | 31,000 compounds, 1.2% hits | AID 624137, 2012;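 active = spot signal over background at p below 0.07 in all four prints; compounds were printed on slides so no solution concentration is given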;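 also: a binder raises fluorescence above local background on the spot; about 2 pmol printed per array spot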
Target sequence (P47928 whole entry, looked up): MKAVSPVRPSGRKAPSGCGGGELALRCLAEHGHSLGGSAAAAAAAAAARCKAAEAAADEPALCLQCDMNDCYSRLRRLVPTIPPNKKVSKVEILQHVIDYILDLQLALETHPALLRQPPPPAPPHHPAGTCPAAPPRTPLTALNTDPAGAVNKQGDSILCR
Calls only; i = inactive; + = active, no number.

entry	molecule	ID4 binder
1	O=c1[nH]nc(-c2ccc(NCCN3CCOCC3)c([N+](=O)[O-])c2)c2ccccc12	i
2	CN1CCN(C(=O)CN(c2cccc(Br)c2)S(=O)(=O)c2ccccc2)CC1	i
3	C[C@H]1CN([C@@H](C)CO)S(=O)(=O)c2ccc(-c3cccc(C(=O)N(C)C)c3)cc2O[C@@H]1CN(C)Cc1ccc2c(c1)OCO2	+
4	CCC(=O)c1ccc(OCC(O)Cn2c(C)nc3ccccc32)cc1 (configuration not stated)	i
5	Cc1cnnc(/N=C(\N)Nc2ccc(S(=O)(=O)Nc3nc(C)ccc3C)cc2)n1	i
6	Cc1ccccc1OCC(=O)Nc1ccccc1C(=O)N1C(C)CCCC1C (configuration not stated)	i
7	CO[C@H](CN(C)Cc1cc(F)ccc1F)[C@@H](C)CN([C@@H](C)CO)S(=O)(=O)c1ccc(F)cc1	i
8	C[C@H](NC(=O)C[C@H]1CC[C@H](NC(=O)CN2CCOCC2)[C@@H](CO)O1)c1ccccc1	i
9	O=C(CSc1nnnn1-c1ccc(F)cc1F)Nc1ccc2c(c1)OCCO2	i
10	C[C@H]1CN([C@@H](C)CO)C(=O)c2c(c3ccccc3n2C)-c2ccccc2CO[C@H]1CN(C)Cc1cccnc1	i
11	O=C(COc1ccccc1[N+](=O)[O-])Nc1ccc2oc(-c3cccc(Cl)c3)nc2c1	i
12	CCOC(=O)c1c(NC(=O)Cn2cnc3ccccc3c2=O)sc2c1CCCC2	i
13	Cc1ccc(NC(=O)CSc2nc3c(c(C(F)(F)F)n2)CCCC3)cc1C	i
14	C[C@@H]1CN([C@@H](C)CO)S(=O)(=O)c2ccc(-c3cccnc3)cc2O[C@H]1CN(C)Cc1ccncc1	i
15	C[C@H](CO)N1C[C@H](C)[C@@H](CN(C)Cc2ccccc2C(F)(F)F)OCc2cnnn2CCCC1=O	i
16	CCCN(C)C[C@@H]1Oc2ncc(-c3ccccc3)cc2C(=O)N([C@H](C)CO)C[C@H]1C	i
17	O=C(N[C@H]1CC[C@H](CC(=O)N2CCCCC2)O[C@@H]1CO)c1cccc(F)c1	i
18	C[C@H](NC(=O)C[C@H]1CC[C@@H](NC(=O)C2CC2)[C@H](CO)O1)c1ccccc1	i
19	Cc1ccccc1-c1ccc2c(c1)O[C@@H](CN(C)C(=O)C1CC1)[C@H](C)CN([C@H](C)CO)S2(=O)=O	i
20	CC(C)CC#Cc1cnc2c(c1)C(=O)N([C@H](C)CO)C[C@H](C)[C@H](CN(C)Cc1ccc(F)cc1)O2	i
21	CCn1ncc(CN(C)C(=O)c2cc(-c3cccnc3)nc3ccc(Cl)cc23)c1C	i
22	C[C@@H]1CN([C@@H](C)CO)C(=O)c2cc(C#CCC3CCCC3)cnc2O[C@H]1CN(C)C(=O)c1cnccn1	i
23	Cc1ccc(-n2c(SCC(=O)Nc3c(Cl)cccc3Cl)nnc2-c2ccncc2)cc1	i
24	COCCNC(=O)c1ccccc1NC(=O)c1ccc([N+](=O)[O-])cc1	i
25	CCCCCN=C(N)N/N=C/c1c[nH]c2ccc(OC)cc12	i
26	CC(=O)N(C)C[C@H]1Oc2ncc(C#CCC3CCCC3)cc2C(=O)N([C@H](C)CO)C[C@@H]1C	i
27	O=C(Oc1ccccc1)c1cccc(COC(=O)c2cc3ccccc3oc2=O)c1	i
28	Cc1cccc(C(=O)O)c1O	i
29	C[C@H](CO)N1C[C@H](C)[C@@H](CN(C)Cc2ccc(C(F)(F)F)cc2)Oc2ccc(N(C)C)cc2C1=O	i
30	C[C@H](CO)N1C[C@H](C)[C@@H](CN(C)Cc2cccnc2)Oc2ncc(-c3cccc(F)c3)cc2C1=O	i

Quoted at random: 6 entries already listed.
entry	molecule	ID4 binder
21	CCn1ncc(CN(C)C(=O)c2cc(-c3cccnc3)nc3ccc(Cl)cc23)c1C	i
29	C[C@H](CO)N1C[C@H](C)[C@@H](CN(C)Cc2ccc(C(F)(F)F)cc2)Oc2ccc(N(C)C)cc2C1=O	i
23	Cc1ccc(-n2c(SCC(=O)Nc3c(Cl)cccc3Cl)nnc2-c2ccncc2)cc1	i
27	O=C(Oc1ccccc1)c1cccc(COC(=O)c2cc3ccccc3oc2=O)c1	i
26	CC(=O)N(C)C[C@H]1Oc2ncc(C#CCC3CCCC3)cc2C(=O)N([C@H](C)CO)C[C@@H]1C	i
30	C[C@H](CO)N1C[C@H](C)[C@@H](CN(C)Cc2cccnc2)Oc2ncc(-c3cccc(F)c3)cc2C1=O	i

Next section.
entry	molecule	ID4 binder
31	O=C(COc1ccc(Br)cc1CO)Nc1ccc(F)cc1	i
32	Cc1ccccc1-c1nc2cc(NC(=O)COc3ccc(Cl)cc3)ccc2o1	i
33	Cc1ccccc1-c1cnc2c(c1)C(=O)N([C@H](C)CO)C[C@@H](C)[C@@H](CN(C)C(=O)CC1CC1)O2	i
34	Cc1ccc(C(=O)CC(C(=O)c2ccc(C(F)(F)F)cc2)c2cccs2)cc1 (configuration not stated)	i
35	CO[C@H](CN(C)C(=O)c1ccc2c(c1)OCO2)[C@@H](C)CN([C@H](C)CO)S(=O)(=O)c1ccc(C)cc1	i
36	COc1ccc([N+](=O)[O-])cc1NC(=O)C(C)Oc1ccccc1C (configuration not stated)	i
37	CCCN(C)C[C@H]1Oc2cc(C3=CCCC3)ccc2S(=O)(=O)N([C@H](C)CO)C[C@@H]1C	i
38	CCn1c(SCC(=O)c2ccc(OC)cc2)nnc1-c1ccccc1F	i
39	C[C@H]1CN([C@@H](C)CO)C(=O)c2cc(C3=CCCC3)cnc2O[C@H]1CN(C)Cc1ccccn1	i
40	CCN(CC(=O)Nc1ccc2c(c1)OCCO2)S(=O)(=O)c1ccc(Cl)cc1	i

Compounds shown so far that contain an NH in an aromatic ring (2):
entry	molecule	ID4 binder
1	O=c1[nH]nc(-c2ccc(NCCN3CCOCC3)c([N+](=O)[O-])c2)c2ccccc12	i
25	CCCCCN=C(N)N/N=C/c1c[nH]c2ccc(OC)cc12	i

Carrying on.
entry	molecule	ID4 binder
41	Cc1c(C(=O)Nc2ccccc2)sc2ncn(CC(=O)Nc3ccccc3C(F)(F)F)c(=O)c12	i
42	COc1cc(Cl)c(C(Nc2ccccn2)c2cc(Cl)c3cccnc3c2O)cc1OC (configuration not stated)	i
43	C[C@@H]1CN([C@@H](C)CO)C(=O)c2cc(Br)cnc2O[C@H]1CN(C)C(=O)C1CCCCC1	i
44	Cc1ccc(S(=O)(=O)N(C)Cc2nc(-c3ccc([N+](=O)[O-])cc3)no2)cc1	i
45	O=C(C[C@@H]1C=C[C@@H](NS(=O)(=O)c2ccc(F)cc2)[C@H](CO)O1)NCc1ccncn1	i
46	CC(=O)Nc1cccc(NC(=O)c2cc(-c3cccnc3)nc3ccc(Cl)cc23)c1	i
47	Cc1ccc(N(C(C)C(=O)O)S(C)(=O)=O)cc1 (configuration not stated)	i
48	Cc1ccc(-c2cnc3c(c2)C(=O)N([C@H](C)CO)C[C@H](C)[C@@H](CN(C)C(=O)CN(C)C)O3)cc1	i
49	CNC[C@H]1Oc2ncc(Br)cc2C(=O)N([C@@H](C)CO)C[C@H]1C	i
50	C[C@H]1CN([C@@H](C)CO)S(=O)(=O)c2ccc(C#CC3CCCC3)cc2O[C@@H]1CN(C)Cc1cncnc1	i
51	COCC#Cc1ccc2c(c1)O[C@H](CN(C)C(=O)NC(C)C)[C@@H](C)CN([C@@H](C)CO)S2(=O)=O	i
52	CO[C@@H]1CN(C)C(=O)c2cc(NC(=O)C3CCCC3)ccc2OC[C@@H](C)NC[C@H]1C	i
53	Cc1cccc(NC(=O)CCS(=O)(=O)c2ccccc2)c1	i
54	Brc1ccc2noc(-c3ccccc3)c2c1	i
55	CCCN(C)C[C@H]1Oc2ncc(-c3ccccc3F)cc2C(=O)N([C@@H](C)CO)C[C@@H]1C	i
56	CCOc1cc(S(=O)(=O)NCCN2CCOCC2)c(C)cc1C	i
57	COc1ccc(C(=O)CSc2nc(SC)ns2)cc1OC	i
58	O=C1c2ccccc2C(=O)N1CC1CCN(Cc2ccc(OCCO)cc2)CC1	i
59	Cc1ccccc1NC(=O)Cn1cnc2c1c(=O)n(C)c(=O)n2C	i
60	COc1cccc(CNC(=O)C[C@H]2CC[C@@H](NC(=O)C3CCC3)[C@@H](CO)O2)c1	i
61	CCCCOC(=O)c1cc2c(cn1)[nH]c1ccccc12	i
62	CS(=O)(=O)Nc1ccc2oc3ncccc3c(=O)c2c1	i
63	Cc1ccccc1-c1cnc2c(c1)C(=O)N([C@@H](C)CO)C[C@H](C)[C@@H](CN(C)C(=O)CC1CC1)O2	i
64	Cc1cccc(NC(=O)CN(C)S(=O)(=O)c2ccc3ccccc3c2)c1C	i
65	CN(CC(=O)Nc1ccc(C(N)=O)cc1)S(=O)(=O)c1ccc(F)cc1	i
66	CCOC(=O)c1cnc2c(C)c(Cl)ccc2c1NCCCN1CCOCC1	i
67	COc1ccc(NC(=O)CN2C(=O)c3cccc4cccc2c34)cc1OC	i
68	COc1ccc(NC(=O)N(C)C[C@H]2Oc3cc(C#CCC(C)C)ccc3S(=O)(=O)N([C@@H](C)CO)C[C@H]2C)cc1	i
69	C=C1SC(Nc2c(CC)cccc2CC)=NC1(C)C	i
70	COc1ccc(Br)cc1C1CC(=O)C(C)C(c2cc(Br)ccc2OC)N1 (configuration not stated)	i
71	COc1ccc(NC(=O)COc2ccc(Br)cc2Cl)c([N+](=O)[O-])c1	i
72	O=C(Cn1cnc([N+](=O)[O-])n1)Nc1cccc2ccccc12	i
73	O=C(CC(=O)c1ccccc1O)c1ccccc1	i
74	O=C(C[C@@H]1CC[C@H](NC(=O)C2CC2)[C@@H](CO)O1)NCC1CC1	i
75	O=C(CSc1nc2c(c(=O)n1-c1ccc(Cl)cc1)SCC2)Nc1nccs1	i
76	C[C@H]1CN([C@@H](C)CO)C(=O)c2cc(/C=C/c3ccccc3)cnc2O[C@H]1CN(C)C(=O)CN(C)C	i
77	CCCN(C)C[C@@H]1Oc2cc(-c3cccc(OC)c3)ccc2S(=O)(=O)N([C@@H](C)CO)C[C@@H]1C	i
78	CN(C)C(=O)C[C@@H]1C[C@@H]2c3cc(NC(=O)CC4CC4)ccc3O[C@@H]2[C@H](CO)O1	i
79	C[C@H](CO)N1C[C@H](C)[C@@H](CN(C)Cc2cccc(F)c2)Oc2cc(-c3ccc(F)cc3)ccc2S1(=O)=O	i
80	Cc1n[nH]c(C)c1S(=O)(=O)N1CCC2(CC1)OCCO2	i
81	COC(=O)c1c(NC(=O)C2CC(=O)NN2Cc2ccccc2)sc(C)c1C (configuration not stated)	i
82	Cc1ccc(C)c(-n2nnnc2SCC(=O)Nc2c(C)n(C)n(-c3ccccc3)c2=O)c1	i
83	COc1cc2c(cc1NC(=O)CCCOc1ccccc1)oc1ccccc12	i
84	Cn1c(SCC(=O)Nc2ccccc2C(F)(F)F)nnc1-c1ccco1	i
85	Cc1ccc(-n2c(C)nnc2SCC(=O)Nc2ccc(Br)cc2F)cc1	i
86	COc1cc2c(cc1OC)C(C)N(C(=O)c1cc3c(C)cc(C)cc3[nH]1)CC2 (configuration not stated)	i
87	C[C@H]1CN([C@@H](C)CO)C(=O)CCCn2cc(nn2)CO[C@H]1CN(C)CC1CCCC1	i
88	CC(=O)N[C@H]1CC[C@H](CC(=O)NCc2ccc(Cl)cc2)O[C@H]1CO	i
89	CCOC(=O)c1c(NC(=O)c2cc(S(=O)(=O)N3CCOCC3)ccc2OC)sc2c1CCC2	i
90	O=C(C[C@@H]1C[C@H]2c3cc(NC(=O)C4CCC4)ccc3O[C@H]2[C@H](CO)O1)NC1CCCCC1	i

(next part)
entry	molecule	ID4 binder
91	O=C(NCCN1CCOCC1)C(=O)NCC1COc2ccccc2O1 (configuration not stated)	i
92	CCCC(=O)Nc1ccc2c(c1)OC[C@@H](C)N(Cc1cccc(F)c1)C[C@@H](C)[C@H](OC)CN(C)C2=O	i
93	CC1(C)[C@@H](OC(=O)CCC(=O)O)CC[C@]2(C)[C@H]3C(=O)C=C4[C@@H]5C[C@@](C)(C(=O)O)CC[C@]5(C)CC[C@@]4(C)[C@]3(C)CC[C@@H]12	i
94	COc1cc(OC)c(-c2c(OC)cc(OC)cc2OC)c(OC)c1	i
95	CCCC#Cc1ccc2c(c1)O[C@@H](CN(C)CC1CCOCC1)[C@H](C)CN([C@H](C)CO)S2(=O)=O	i
96	CC(Oc1ccc(Br)cc1)c1nc(-c2ccccn2)no1 (configuration not stated)	i
97	N#C/C(=C\c1ccc(O)c(O)c1)C(N)=O	i
98	Cc1ccc(Cl)c(OCC(O)Cn2cnc3ccccc32)c1 (configuration not stated)	i
99	COc1cccc(NC(=O)N(C)C[C@H]2Oc3ncc(C#Cc4ccncc4)cc3C(=O)N([C@@H](C)CO)C[C@@H]2C)c1	i
100	Cc1cc(N2CCCC2)ccc1/C=C(/C#N)c1ccc(F)cc1	i
101	C[C@H]1CN([C@@H](C)CO)S(=O)(=O)c2ccc(-c3ccc(C#N)cc3)cc2O[C@@H]1CN(C)C(=O)C1CC1	i
102	O=C(CCn1cnc2ccccc2c1=O)Nc1ccc(Cl)c(Cl)c1	i
103	C[C@@H]1CN([C@H](C)CO)S(=O)(=O)c2ccc(C#CCN(C)C)cc2O[C@H]1CN(C)C	i
104	CCOC(=O)c1ccc(COC(=O)c2cc3ccccc3cc2O)o1	i
105	CCC(=O)N[C@H]1C=C[C@H](CC(=O)NCc2cc(F)cc(F)c2)O[C@@H]1CO	i
106	Cc1cc(OCC(=O)Nc2ccc(O)c(-c3nc4ccccc4o3)c2)ccc1Cl	i
107	C[C@@H]1CN([C@H](C)CO)C(=O)c2cc(-c3cccc(C#N)c3)cnc2O[C@H]1CN(C)C(=O)c1cnccn1	i
108	CCOc1ccc(Cl)cc1S(=O)(=O)NC1CC(C)(C)NC(C)(C)C1	i
109	CCCCCCCNS(=O)(=O)c1cccc2c(Cl)cccc12	i
110	CN1CCN(C(=O)C[C@@H]2C[C@H]3c4cc(NC(=O)C5CCOCC5)ccc4O[C@H]3[C@H](CO)O2)CC1	i
111	COc1ccc(-c2nnc(SCC(=O)Nc3c(F)cc(F)cc3Br)n2C)cc1	i
112	Cc1cccc(OCC(=O)Nc2cccc(-c3nnc(-c4ccco4)o3)c2)c1C	i

An excerpt; rates above refer to the full screens.
